# Source: PubChem BioAssay
# Rango-impB inh: qHTS Assay for Inhibitors of Rango (Ran-regulated importin-beta cargo) - Importin beta complex formation. Importin subunit beta-1 (Homo sapiens), Q14974. Rango CFP/YFP FRET sensor + importin beta, 45 min. Potency, µM (titrated, usually from 92.2 µM), for the others: at the highest dose inhibition of complex formation. hit rate 0.031% among 340,000; active = rising FRET ratio curve, often small or poorly fitted; inconclusive = mostly compound fluorescence or quenching in the first reads; inactive = flat curves in all reads;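 also: potency is read from the fitted curve at half-maximal effect; 0% = DMSO wells and 100% = buffer wells lacking importin beta; nearly all actives have a fitted effect of over 15% in size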
# Target sequence (Q14974 whole entry, looked up): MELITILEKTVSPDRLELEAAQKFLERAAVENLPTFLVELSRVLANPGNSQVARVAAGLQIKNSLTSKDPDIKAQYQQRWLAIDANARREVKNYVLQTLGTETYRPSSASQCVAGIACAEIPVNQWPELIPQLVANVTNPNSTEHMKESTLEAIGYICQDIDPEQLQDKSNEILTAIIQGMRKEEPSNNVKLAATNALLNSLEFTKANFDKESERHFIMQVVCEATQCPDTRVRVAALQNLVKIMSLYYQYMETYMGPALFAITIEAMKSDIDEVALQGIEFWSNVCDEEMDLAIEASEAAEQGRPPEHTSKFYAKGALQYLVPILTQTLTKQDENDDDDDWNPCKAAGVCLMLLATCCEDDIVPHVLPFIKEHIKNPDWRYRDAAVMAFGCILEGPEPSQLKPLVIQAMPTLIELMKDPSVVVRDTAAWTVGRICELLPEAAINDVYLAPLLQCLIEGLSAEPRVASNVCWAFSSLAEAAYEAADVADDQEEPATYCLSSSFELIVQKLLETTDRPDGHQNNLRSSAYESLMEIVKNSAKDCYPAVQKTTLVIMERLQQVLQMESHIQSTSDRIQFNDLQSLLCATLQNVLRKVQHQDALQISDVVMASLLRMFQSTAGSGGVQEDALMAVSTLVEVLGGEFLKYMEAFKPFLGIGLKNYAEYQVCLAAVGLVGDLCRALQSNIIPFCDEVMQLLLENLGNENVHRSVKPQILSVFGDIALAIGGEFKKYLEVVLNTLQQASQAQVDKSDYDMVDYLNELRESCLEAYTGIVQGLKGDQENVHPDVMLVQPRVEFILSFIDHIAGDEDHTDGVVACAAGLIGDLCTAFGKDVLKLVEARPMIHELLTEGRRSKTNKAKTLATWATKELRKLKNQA
#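 Inhibition scored from the CFP 486 nm/YFP 530 nm FRET ratio 45 min after adding 0.125 microM importin beta to 50 nM Rango biosensor preincubated 5 min with compound (room temperature, PBS with DTT, Tween-20, BSA). No-importin wells as positive control.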
# GLA inh pH 4.5: qHTS Assay for Inhibitors of Human alpha-Galactosidase at pH 4.5; purified enzyme, 4-MU-alpha-Gal fluorescence, pH 4.5; activity change, negative = inhibition, % at 105 µM; 230,000 tested, under 10 active; AID 1467, 2008; inconclusive = small, poorly fitted or top-dose-only inhibition, or a rising curve; inactive = flat fitted curve, though single readings scatter; no compound was filed as active;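 also: 0% = full activity with enzyme and -100% = basal without enzyme; dose as in the result columns while the protocol names 77 µM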
# miR-21 reporter: qHTS Assay for Modulators of miRNAs and/orActivators of miR-21 | Potency, µM (top dose mostly 38.3 µM), for the others: at the highest dose reporter change, positive = more light | 340,000 tested, under 10 active | HeLa miR-21 FLuc reporter, luciferase, 48 h; active = well fitted rising curve with a large enough effect; inconclusive = small, poorly fitted or top-dose-only effect; inactive = no such curve, though single readings can be large or run the other way;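 also: % of control where 0% means no effect; miR-21 action dims this reporter so a rising signal means less miR-21 action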
#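 Luminescence from a firefly luciferase reporter carrying a miR-21 binding site downstream, stably expressed under a CMV promoter in HeLa cells that make miR-21 endogenously, reports miRNA modulation after 48 h compound exposure up to approximately 40uM final.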
# Rango dissoc inh: qHTS Assay for Inhibitors of RanGTP induced Rango (Ran-regulated importin-beta cargo) - Importin beta complex dissociation; Biochemical FRET Rango-importin beta, RanGTP-induced dissociation; Potency, µM (highest dose often 46.1 µM), for inactives: at the top dose activity change, negative = inhibition; hit rate 0.071% among 340,000; AID 540253, 2011; active means falling FRET ratio curve, often poorly fitted, with flat reads before Ran was added; inconclusive means other falling curves, or compound fluorescence or quenching; inactive means flat or rising ratio curve;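 also: potency is read from the fitted curve at half-maximal effect; % of control where 0% means no effect; nearly all actives have a fitted effect of over 45% in size; -100% = wells without RanGTP and RCC1; the record marks most hits as doubtful in a second field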
#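 Rango (0.1 uM)–importin beta (0.25 uM) complex; RanGTP-RCC1 trigger; 45 min RT; CFP/YFP FRET read.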
# * hit, by the source's call; ? = inconclusive; / = not tested or not shown. Not all compounds are listed, so the mix of outcomes need not match the whole.
GLA inh pH 4.5 | miR-21 reporter | Rango-impB inh | Rango dissoc inh | smiles
-1 | -7% | 1.1% | 3% | Cc1cnn(C(=S)NCc2ccc(Cl)cc2)c1
/ | -16% | -0.1% | -8% | CC(=O)c1cccc(NC(=O)c2cc(=O)c3ccccc3o2)c1
/ | -4% | -0.4% | -4% | Cc1ccccc1-n1cc(CNC(=O)C2CCC(=O)N(C3CC3)C2)cn1 (stereo not given)
4 | 2% | 0.9% | 12% | Cc1cc(C(C)(C)C)cc(C)c1C(=O)O
/ | / | 4.9% | 0% | COCCNC(=O)C(=O)NCC1OCCN1S(=O)(=O)c1cc(F)ccc1F (stereo not given)
/ | -3% | 0.2% | 6% | O=C(CCNC(=O)c1ccco1)Nc1ccc(OC(F)F)c(Cl)c1
-2 | -7% | -3.8% | 2% | CCC(=O)Nc1cc(-c2nn(C)c(=O)c3ccccc23)ccc1N1CCOCC1
9 | 6% | -4.0% | 0% | CCC12CN3CC(CC)(CN(C1)C3c1ccc([N+](=O)[O-])o1)C2=O (stereo not given)
-18 | -22% | -2.6% | -1% | CCOc1ccc(NC(=O)C2Cc3ccccc3CN2S(=O)(=O)CC)cc1 (stereo not given)
-1 | 29% | -1.3% | 12% | COc1ccc(C(=O)Nc2sc3c(c2C(=O)O)CC(C)(C)OC3)cc1
-2 | -2% | -1.1% | -8% | Cc1ccc(SCc2ccc(C(=O)Nc3cccc([N+](=O)[O-])c3)cc2)cc1
-16 | 0% | -2.7% | 0% | Cc1ccc(-c2nn(-c3ccccc3)cc2/C=C2\SC(=S)N(CC(=O)O)C2=O)cc1
3 | -24% | -1.9% | -2% | CCOC(=O)C1(C)C=C(Nc2cccc(OC)c2)C(=O)N1c1ccccc1 (stereo not given)
-17 | / | 3.6% | 52% | C[C@@H]1CC=C[C@@H]2[C@H]1C(=O)N(Cc1ccccc1)[C@H]2c1ccccc1Br
7 | -79% | 0.8% | 17% | Cc1cccc2nc(CSc3ccc(Cl)cc3)cn12
/ | / | -2.0% | 5% | Cc1cc(C)cc(C(=O)NCC(=O)OCC(=O)NC2CCCc3ccccc32)c1 (stereo not given)
0 | -34% | -2.8% | -11% | COc1ccc(C2=NN(C(=O)CSc3nnc(C)c(=O)n3N)C(c3ccco3)C2)cc1 (stereo not given)
/ | 5% | -0.1% | 1% | Cc1ccoc1C(=O)N1CCN(C(=O)c2occc2C)CC1
/ | / | 0.2% | -14% | COC(C/C=C/C(=O)[C@@H](C)OCc1ccccc1)OC
/ | -39% | 1.4% | 8% | COc1ccccc1CNCC(=O)Nc1ccc(N(C)C)cc1
/ | -4% | -2.5% | -8% | COc1cc(OC)c(C(=O)NC2CCCc3ccccc32)cc1OC (stereo not given)
/ | -10% | 1.4% | 11% | CCOc1ccccc1C(=O)NCC(=O)NCCCSc1ccccc1
0 | -3% | -0.1% | -5% | CCC(NC(=O)C1CCC1)c1ccccc1 (stereo not given)
/ | 2% | -1.4% | 1% | CCC(=O)NNC(=O)CSc1nnc(-c2ccccc2)c(-c2ccccc2)n1
4 | 3% | 4.8% | -3% | CC(=O)/C(CN1CCCCC1)=N\O
4 | -3% | -0.2% | 2% | O=C(NC1CCCCC1)c1ccc(CS(=O)(=O)Cc2ccccc2F)o1
/ | -5% | ? | 1% | COc1ccc(Nc2nccc(-c3ccc(C#N)cc3)n2)cc1
-4 | -2% | 4.6% | 14% | Cc1ccc(NS(=O)(=O)c2ccc(CCC(=O)NC3CC3)cc2)cc1
1 | -11% | 2.8% | 6% | CCCN1CCN(C(=O)CCCn2c(C)c3cnn(-c4ccccc4)c(=O)c3c2C)CC1
-3 | -5% | 3.9% | -9% | CC(C)n1nc(C(=O)NCc2ccc3c(c2)OCO3)c2ccccc2c1=O
0 | -4% | -0.2% | 21% | CCCN(CCC)S(=O)(=O)c1ccc(NC(=O)C2CCCO2)cc1 (stereo not given)
1 | -5% | -1.0% | -3% | CC(Sc1nc(-c2ccccc2)cc(=O)[nH]1)C(=O)O (stereo not given)
-5 | 20% | 0.8% | 10% | CCOC(=O)Cc1csc(NC(=O)/C=C/c2cccc(Br)c2)n1
-15 | 12% | 1.5% | -7% | CC(C)(C)OC(=O)NCCCCCNC(=O)c1[nH]cnc1C(=O)N[C@@H](Cc1ccccc1)C(=O)OCc1ccccc1
9 | -23% | -0.7% | -14% | COC(=O)c1ccc(NC(=O)Nc2ccc3c(c2)nc(C)n3C)cc1
/ | 21% | -4.9% | 7% | O=C(Nc1ccc(Cl)cc1)C1CCCN(c2ncnc3c2nc2n3CCCCC2)C1 (stereo not given)
/ | -17% | -0.1% | -14% | O=C(Cc1cccs1)Nc1ccc(F)c(F)c1
/ | 1% | ? | 0% | CCn1nc(NC(=O)CC(C)C)c2cc3ccc(C)cc3nc21
-19 | -8% | -0.2% | -15% | CC(=O)NCCc1cc2ccc(C)cc2[nH]c1=O
/ | 0% | -1.5% | 14% | O=C(NCCn1cccn1)C1CCC(=O)N(CCc2ccc(Cl)cc2)C1 (stereo not given)
/ | / | -0.7% | -7% | O=C(CN1C(=O)NC2(CCCC2)C1=O)OCCOc1cccc(Br)c1
/ | / | -0.1% | 0% | O=C(CS(=O)(=O)c1ccccc1)N(CCCN1CCOCC1)c1nc2c(F)cccc2s1
2 | -12% | -1.0% | 8% | CCC1(CC)NC(=O)N(Cc2nc3ccccc3s2)C1=O
-7 | -15% | 1.2% | 13% | Cc1occc1C(=O)Nc1ccccc1C(=O)O
-5 | 12% | 8.1% | 1% | S=c1[nH]nc2nnc3ccccc3n12
-3 | -6% | 0.6% | -5% | CCC(CC)C(=O)Nc1cccc(C(=O)N2CCCC2)c1
/ | / | -6.2% | 6% | CSCCC(NC(=O)COc1ccccc1)C(=O)OCCOc1ccc(C)cc1 (stereo not given)
-1 | -9% | -1.2% | 1% | Cc1c(C(=O)O)oc2c1C(=O)CC(C)(C)C2
0 | -12% | 1.0% | 3% | Cc1ccc2nsnc2c1S(=O)(=O)N(CCO)Cc1cc2cc3c(cc2[nH]c1=O)OCCO3
/ | / | -1.2% | -3% | C[C@H](CO)N1C[C@H](C)[C@@H](CN(C)Cc2ccccc2)Oc2c(NS(=O)(=O)c3ccccc3)cccc2C1=O
1 | -30% | -2.2% | 26% | CCOC(=O)Nc1ccc(C(=O)/C=C/c2ccccc2)cc1
/ | / | 0.4% | -1% | COc1ccccc1CNC(=O)CN1C(=O)NC(c2ccccc2)(c2ccccc2)C1=O
/ | -8% | -1.7% | 1% | COc1cc(OC)c(OC)cc1CN(C)CC1CCCN(CCc2ccccc2F)C1 (stereo not given)
-3 | -43% | -1.6% | -1% | CC1(C)CNC(=O)c2sc(NC(=O)c3ccccc3)nc2C1
0 | -73% | -0.8% | -12% | COc1ccc(C2=NN(C(C#N)c3ccc(OC)cc3)C(c3ccccc3)C2)cc1 (stereo not given)
0 | ? | -2.4% | 1% | COc1ccc(-c2csc(NC3OC(=O)c4c3ccc(OC)c4OC)n2)cc1OC (stereo not given)
/ | / | 0.1% | -13% | Cc1cn(C2CCCCO2)c(=O)[nH]c1=O (stereo not given)
/ | -1% | 0.6% | 16% | COc1cc(S(=O)(=O)n2cnc3ccccc32)ccc1Br
/ | / | 0.2% | 19% | CCOc1ccc(NS(=O)(=O)c2cccc(C(=O)N3CCN(C/C=C/c4ccccc4)CC3)c2)cc1
3 | -19% | ? | 19% | O=C1C(=Cc2ccc(Br)o2)C(=O)c2ccccc21

# Retrieved one by one from the list above, 3 records:
GLA inh pH 4.5 | miR-21 reporter | Rango-impB inh | Rango dissoc inh | smiles
/ | 21% | -4.9% | 7% | O=C(Nc1ccc(Cl)cc1)C1CCCN(c2ncnc3c2nc2n3CCCCC2)C1 (stereo not given)
0 | -12% | 1.0% | 3% | Cc1ccc2nsnc2c1S(=O)(=O)N(CCO)Cc1cc2cc3c(cc2[nH]c1=O)OCCO3
/ | -1% | 0.6% | 16% | COc1cc(S(=O)(=O)n2cnc3ccccc32)ccc1Br

# Next section.
GLA inh pH 4.5 | miR-21 reporter | Rango-impB inh | Rango dissoc inh | smiles
-20 | -13% | -2.4% | -24% | CCN(CC)c1ccc(C=Nc2ccccc2)c(O)c1
/ | / | ? | -20% | N#CCSc1ccccc1NC(=O)CN1C(=O)C2CC=CCC2C1=O (stereo not given)
/ | -2% | 0.1% | -2% | Cc1ccnc(S(=O)(=O)Cc2ccc([N+](=O)[O-])cc2)n1
5 | 2% | 0.0% | -9% | Cn1cc(C(=O)N2CCc3ccccc3C2)c(=O)c2cc(S(=O)(=O)N3CCOCC3)ccc21
-2 | -1% | -3.9% | 12% | Cn1c(-c2cc(Br)ccc2O)n[nH]c1=S
/ | / | 3.8% | -19% | Cc1ccc(S(=O)(=O)N2C[C@@H]3CCCC[C@@H]3[C@@H](C)[C@H]2CC(=O)c2ccccc2)cc1
-3 | 0% | 1.5% | -1% | CCOc1ccc(/C(O)=C2/C(=O)C(=O)N(CC3CCCO3)C2c2ccc(C)o2)cc1 (stereo not given)
0 | -12% | 0.9% | 0% | C/C(=N\NC(=O)CC1N=C(Cc2ccccc2)NNC1=O)c1ccncc1 (stereo not given)
-5 | -3% | 2.0% | 5% | CN(Cc1ccccc1)S(=O)(=O)c1ccc(Cl)c(C(=O)O)c1
/ | -10% | -4.6% | -3% | CN(Cc1c(F)cccc1Cl)C(=O)c1cnc2ccccc2n1
3 | -4% | -2.9% | -6% | CC(=O)N(c1nc(CCl)cs1)c1cccc(C)c1C
-1 | -1% | -4.9% | -3% | C/C(=N\N=C(N)N)c1cccc([N+](=O)[O-])c1
/ | 2% | -0.5% | -19% | O=C(NCc1cccc(C(F)(F)F)c1)c1ccc2c(c1)OCO2
6 | -5% | ? | 12% | COc1cc(C(=O)N(Cc2ccc(N(C)C)cc2)C2CCS(=O)(=O)C2)cc(OC)c1OC (stereo not given)
/ | 1% | -1.1% | -3% | O=C(O)c1ccc(S(=O)(=O)N2CCc3ccccc3C2)cc1
/ | -70% | 2.9% | 31% | CCCCOc1ccc(C(=O)N=c2sccn2C)cc1OC
-1 | -36% | 0.5% | -12% | Cc1occc1C(=O)Nc1ccc(Br)cc1F
1 | 3% | -3.6% | -8% | CCCCn1c(=O)n(CC(=O)NCc2ccc(C)cc2)c(=O)c2c1nc(CO)n2CCC
2 | 2% | 9.4% | 12% | O=C(c1ccccc1Oc1ccccc1)N1CCN(c2ccccc2F)CC1
/ | / | -1.6% | -10% | COc1ccc(CNC(=O)C2(CC3CC(c4ccccc4)=NO3)CCN(C(=O)OC(C)(C)C)CC2)cc1 (stereo not given)
-9 | 25% | 2.3% | -9% | CCCc1nn(-c2cc(Cl)ccc2OC)c2c1C(=O)CC(C)(C)C2
/ | / | 0.2% | -1% | COc1ccc(CCNC(=O)C2CC2)cc1
-7 | -5% | ? | 0% | Cc1cc(=O)n2nc(N3CCCC(C(=O)NCc4ccc5c(c4)OCO5)C3)sc2n1 (stereo not given)
/ | 2% | -6.1% | 25% | CCOC(=O)C1CCN(S(=O)(=O)c2cc(C(=O)OC)n(C)c2)CC1
-1 | -23% | -0.1% | 1% | NC(=O)c1c(NC(=O)c2cnccn2)sc2c1CCCC2

# Entries of single compounds from above.
# `CC(=O)N(c1nc(CCl)cs1)c1cccc(C)c1C` in the list: GLA inh pH 4.5: 3; miR-21 reporter: -4%; Rango-impB inh: -2.9%; Rango dissoc inh: -6%
# `C/C(=N\N=C(N)N)c1cccc([N+](=O)[O-])c1` in the list: GLA inh pH 4.5: -1; miR-21 reporter: -1%; Rango-impB inh: -4.9%; Rango dissoc inh: -3%
# `Cn1c(-c2cc(Br)ccc2O)n[nH]c1=S` in the list: GLA inh pH 4.5: -2; miR-21 reporter: -1%; Rango-impB inh: -3.9%; Rango dissoc inh: 12%
